Source: PubChem BioAssay (National Center for Advancing Translational Sciences (NCATS))
GLA inh pH 4.5 – blocks human alpha-galactosidase A at pH 4.5; AID 1467; 230,000 tested, under 10 active; activity change, negative = inhibition, % at 105 µM; P06280; purified enzyme, 4-MU-alpha-Gal fluorescence, pH 4.5; inconclusive = small, poorly fitted or top-dose-only inhibition, or a rising curve; inactive = flat fitted curve, though single readings scatter; no compound was filed as active;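 also: 0% = full activity with enzyme and -100% = basal without enzyme; dose as in the result columns while the protocol names 77 µM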
Rango dissoc inh – prevents RanGTP from dissociating the Rango-importin beta complex. Biochemical FRET Rango-importin beta, RanGTP-induced dissociation. 340,000 tested, 0.071% active. Potency, µM (top dose mostly 46.1 µM), inactives show top-dose activity change, negative = inhibition. AID 540253; active means falling FRET ratio curve, often poorly fitted, with flat reads before Ran was added; inconclusive means other falling curves, or compound fluorescence or quenching; inactive means flat or rising ratio curve;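 also: potency is read from the fitted curve at half-maximal effect; % of control where 0% means no effect; nearly all actives have a fitted effect of over 45% in size; -100% = wells without RanGTP and RCC1; the record marks most hits as doubtful in a second field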
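FRET read at 45 min, room temperature: inhibitors block the CFP/YFP signal rise when RanGTP (0.6 uM Ran, 2 mM GTP, 0.2 uM RCC1) frees Rango (0.1 uM) from importin beta (0.25 uM). Pre-read after 5 min compound exposure flags interference.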
Rango complex inh – inhibitors of Rango-importin beta complex formation; AID 540263; Potency, µM (top dose mostly 92.2 µM), for inactives: top-dose inhibition of complex formation; 340,000 tested, 0.031% active; Rango CFP/YFP FRET sensor + importin beta, 45 min; Q14974; active = rising FRET ratio curve, often small or poorly fitted; inconclusive = mostly compound fluorescence or quenching in the first reads; inactive = flat curves in all reads;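 also: potency is read from the fitted curve at half-maximal effect; 0% = DMSO wells and 100% = buffer wells lacking importin beta; nearly all actives have a fitted effect of over 15% in size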
Target sequence (Q14974 whole entry, looked up): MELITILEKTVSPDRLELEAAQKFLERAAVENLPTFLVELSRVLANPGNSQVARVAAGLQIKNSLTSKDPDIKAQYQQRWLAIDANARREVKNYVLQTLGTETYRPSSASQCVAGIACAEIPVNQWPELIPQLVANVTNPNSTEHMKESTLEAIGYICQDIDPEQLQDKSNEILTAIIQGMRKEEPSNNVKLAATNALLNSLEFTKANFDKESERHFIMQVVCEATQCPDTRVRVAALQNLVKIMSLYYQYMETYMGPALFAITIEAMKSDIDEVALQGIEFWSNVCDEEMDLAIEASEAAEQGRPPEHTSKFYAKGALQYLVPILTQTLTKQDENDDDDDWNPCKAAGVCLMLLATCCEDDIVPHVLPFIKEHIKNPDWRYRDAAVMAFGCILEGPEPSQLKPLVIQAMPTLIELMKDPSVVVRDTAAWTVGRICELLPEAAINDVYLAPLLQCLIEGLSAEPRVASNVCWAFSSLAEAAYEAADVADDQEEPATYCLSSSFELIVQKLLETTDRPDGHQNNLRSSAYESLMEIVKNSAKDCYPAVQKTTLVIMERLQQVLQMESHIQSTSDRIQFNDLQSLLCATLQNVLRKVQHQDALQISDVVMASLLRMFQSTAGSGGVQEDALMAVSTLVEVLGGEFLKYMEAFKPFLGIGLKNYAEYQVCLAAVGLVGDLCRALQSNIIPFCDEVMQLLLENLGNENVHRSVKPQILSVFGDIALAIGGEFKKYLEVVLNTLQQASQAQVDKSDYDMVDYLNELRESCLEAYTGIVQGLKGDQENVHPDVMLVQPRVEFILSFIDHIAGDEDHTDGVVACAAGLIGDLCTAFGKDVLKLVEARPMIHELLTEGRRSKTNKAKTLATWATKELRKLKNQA
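FRET biosensor (snurportin 1 IBB flanked by EYFP and cerulean), 50 nM, with compound 5 min, then 0.125 microM importin beta in PBS, 1 mM DTT, 0.02% Tween-20, 0.1% BSA. CFP/YFP ratio read after 45 min at room temperature; pre-read flags interference.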
miR-21 FLuc – raises the signal of a miR-21 reporter | AID 2288 | Potency, µM (doses to about 38.3 µM), without a hit: top-dose reporter change, positive = more light | 340,000 tested, under 10 active | HeLa miR-21 FLuc reporter, luciferase, 48 h; active = well fitted rising curve with a large enough effect; inconclusive = small, poorly fitted or top-dose-only effect; inactive = no such curve, though single readings can be large or run the other way;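 also: % of control where 0% means no effect; miR-21 action dims this reporter so a rising signal means less miR-21 action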
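Using DMEM plus 10% FBS, HeLa miR-21-FLuc cells are incubated with test compounds (final up to about 40uM) for 48 hours; firefly luciferase signal is then imaged following reagent-mediated lysis.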
* hit, by the source's call; ? = inconclusive; · = no result given. An excerpt; count on the stated rates, not on these rows.

SMILES	GLA inh pH 4.5	Rango dissoc inh	Rango complex inh	miR-21 FLuc
CC(C)[C@H](NC(=O)c1ccccc1F)C(=O)NC1CCCCCCC1	·	0%	-0.3%	·
CCOC(=O)N1CCN(S(=O)(=O)c2ccc([N+](=O)[O-])cc2)CC1	-3	11%	-5.1%	6%
CC(=O)N1CCN(S(=O)(=O)c2cccc(C(=O)NCCC3=CCCCC3)c2)CC1	·	12%	0.5%	·
CC1=C(C#N)CCC(=O)N1Cc1c(F)cccc1Cl	8	-1%	?	-4%
O=C(Nc1cccc(Cl)c1)OCCOc1ccccc1	·	21%	-2.5%	-53%
CC(CCc1ccco1)NC(=O)c1cc2c(-c3ccccc3F)nn(C)c2s1 (centres undefined)	2	0%	-2.9%	14%
N#Cc1c(-c2ccccc2)c(-c2ccccc2)n(Cc2ccco2)c1NC(=O)c1cccs1	1	-28%	?	18%
N#Cc1cc(-c2ccc(Cl)cc2)cn(Cc2c(Cl)cccc2Cl)c1=O	7	-12%	-3.4%	0%
CN(C)c1oc(-c2ccccc2Cl)nc1P(=O)(c1ccccc1)c1ccccc1	0	-9%	0.1%	1%
Cc1cc(C)c(C2C3=C(Nc4c2c(C)nn4-c2ccccn2)c2ccccc2C3=O)c(C)c1 (centres undefined)	4	9%	7.4%	-8%
O=C(COc1ccc(Cl)cc1)Nc1ccc(Cc2ccncc2)cc1	-13	-7%	0.1%	-7%
CCN(C(=O)CSc1nnnn1-c1cc(C)ccc1OC)C1CCS(=O)(=O)C1 (centres undefined)	5	2%	-0.5%	-1%
Cc1ccc(CNC(=O)CCCc2cn(C)c3ccccc23)cc1	·	-19%	-4.6%	-6%
COCCNC(=O)CN1C(=O)/C(=C/c2ccccc2)Oc2ccc(C(C)(C)C)cc21	·	13%	0.3%	1%
CC12CCC(C(=O)NCc3ccccc3Cl)(OC1=O)C2(C)C (centres undefined)	-2	8%	-0.4%	4%
CCOC(=O)c1ccc(N2C(=O)CC(N(Cc3ccc4c(c3)OCO4)C(=O)Nc3ccccc3)C2=O)cc1 (centres undefined)	-7	13%	0.6%	5%
Cc1ccccc1OCC(=O)Nc1ccc2c(c1)COC2=O	-4	-10%	0.5%	-8%
CCC1(C)Cc2c(sc3nc(SC)[nH]c(=S)c23)CO1 (centres undefined)	·	0%	-0.1%	-7%
O=C1C2C3C=CC([C@@H]2C(=O)N1Cc1cccnc1)C31CC1 (some centres undefined)	6	6%	0.1%	-1%
COc1ccc(O)c(C(=O)c2cnc3onc(C)c3c2)c1	-4	-1%	2.2%	-13%
O=C(Cc1cccc(NC(=O)C2CCN(C(=O)CCc3ccccc3)CC2)c1)Nc1cccc(C(=O)N2CCCCC2)c1	·	-8%	2.0%	·
Cc1nnc(SC(C(=O)Nc2ccc(Cl)c([N+](=O)[O-])c2)c2ccccc2)[nH]c1=O (centres undefined)	-1	-5%	?	8%
CN(C)/C=C1\SC(=S)N(c2ccc(F)cc2)C1=O	-12	20%	-0.8%	-29%
COc1cccc(OC)c1OCc1cc(C2C3CCCC=C3C(C#N)=C(N)C2(C#N)C#N)c(C)cc1C (centres undefined)	-9	?	?	3%
O=[N+]([O-])c1cccc2c(Cl)ccnc12	-7	6%	-1.2%	-1%
CCCC(=O)NCc1nc2ccccc2n1C	3	12%	1.3%	-10%
Cn1c(=O)c2c(nc(NCc3cccnc3)n2Cc2cccc(C(F)(F)F)c2)n(C)c1=O	-6	16%	0.6%	20%
COc1cc(C2C3C(=O)N(c4ccccc4)C(=O)C3ON2c2ccccc2)ccc1O (centres undefined)	3	-25%	3.1%	-3%
COc1ccc(-c2sc3ccccc3c2C#CCCO)cc1	·	?	8.0%	2%
CN=C1NN=C(c2cc(C)n(-c3c(C)n(C)n(-c4ccccc4)c3=O)c2C)CS1	2	-6%	-2.0%	-4%

Some of the entries above, set out differently:
molecule | GLA inh pH 4.5 | Rango dissoc inh | Rango complex inh | miR-21 FLuc
CN=C1NN=C(c2cc(C)n(-c3c(C)n(C)n(-c4ccccc4)c3=O)c2C)CS1 | 2 | -6% | -2.0% | -4%
O=C1C2C3C=CC([C@@H]2C(=O)N1Cc1cccnc1)C31CC1 (some centres undefined) | 6 | 6% | 0.1% | -1%
COc1ccc(O)c(C(=O)c2cnc3onc(C)c3c2)c1 | -4 | -1% | 2.2% | -13%
COc1cc(C2C3C(=O)N(c4ccccc4)C(=O)C3ON2c2ccccc2)ccc1O (centres undefined) | 3 | -25% | 3.1% | -3%
CN(C)/C=C1\SC(=S)N(c2ccc(F)cc2)C1=O | -12 | 20% | -0.8% | -29%

The listing continues.
SMILES	GLA inh pH 4.5	Rango dissoc inh	Rango complex inh	miR-21 FLuc
COc1ccc(CNCCSc2nnnn2C)c(OC)c1OC	-6	11%	-0.5%	-2%
CC1(C)CC(CC(=O)O)(c2ccc(F)cc2)CCO1 (centres undefined)	-4	18%	1.6%	-7%
O=C(CN1C(=O)C2CCCCC2C1=O)N1CCN(c2ncccn2)CC1 (centres undefined)	-4	-9%	3.1%	-8%
Clc1ccc(OCCCCCN2CCOCC2)cc1	·	13%	-0.4%	-14%
CCC(NC(=O)Cc1cccs1)c1ccccc1 (centres undefined)	·	-1%	-0.7%	-6%
Cc1cccc(NC(=S)N(CCN(C)C)Cc2cccs2)c1	1	-4%	-0.4%	-2%
CCOC(=O)c1c(N)sc(C(O)(C(F)(F)F)C(F)(F)F)c1-c1ccccc1	-2	-1%	4.5%	3%
Clc1cccc(Cl)c1CSc1nnc(CN2CCOCC2)n1-c1ccccc1	0	-4%	?	-1%
Cc1cnc(NC(=O)c2cc(S(=O)(=O)N(C)C)ccc2N2CCCC2)s1	·	-27%	-0.2%	·
Cc1cc(CCNC=O)c(C)c2c1sc1ccccc12	·	10%	1.8%	·
Cc1nc(C)c(CCNC(=O)c2ccc(C(F)(F)F)cc2)s1	-3	14%	6.4%	-20%
O=C(NCCCCNC(=O)c1cccnc1)c1cccnc1	1	1%	1.0%	-5%
COc1ccccc1NS(=O)(=O)c1ccc(C(=O)N2CCN(c3ccccn3)CC2)cc1	·	-10%	-0.5%	·
COc1cccc(N(CC(=O)NCC2CCCO2)C(=O)CCC(=O)Nc2nccs2)c1 (centres undefined)	6	19%	-1.6%	1%
Cc1ccc(S(=O)(=O)/N=C(/Nc2nc(C)cc(C)n2)N2CCOCC2)cc1	8	-6%	-0.6%	1%
COc1ccc(-c2ccc(-c3noc(C(C)C)n3)c(OC)n2)cc1	-4	0.0082µM*	?	-40%
COc1ccc2c(c1)c(C(C)=O)c(C)n2CCc1ccccc1	·	1%	-1.6%	9%
CC(=O)Nc1c2c(nn1-c1ccc(C)cc1)CSC2	·	2%	0.7%	-1%
COC(=O)c1c(NC(=O)Cc2ccccc2)sc2c1CC(C)(C)NC2(C)C	·	-11%	0.0%	-2%
CCCNS(=O)(=O)c1ccc(OCC(=O)NCc2ccco2)cc1	0	12%	?	0%
O=C(CCCc1nc2ccccc2s1)N1CCN(c2ccccc2F)CC1	-3	-20%	2.4%	-5%
Clc1ccc(-c2nnc(-c3ccccc3)o2)cn1	·	-6%	-0.8%	-21%
CSc1nnnn1-c1ccc(C)c(Cl)c1	-4	-34%	?	-5%
Cc1c(Cl)cccc1NC(=O)Cn1nnc(C(=O)NCc2cccs2)c1N	2	0%	-1.7%	14%
CCCc1nc(NCc2ccco2)c(C#N)c2c1COC(C)(C)C2	15	21%	4.9%	-9%
Cc1cc2c(SCC(=O)NCC3CCCO3)ncnc2s1 (centres undefined)	·	-18%	-2.7%	-2%
C=CCSc1nc2c(c(=O)[nH]1)C(C(C)C)C(C#N)=C(N)O2 (centres undefined)	6	-11%	5.5%	-40%
Cc1n[nH]c(=O)nc1N/N=C/c1cccs1	-6	-1%	0.0%	-23%
COc1ccc(N2CC(C(=O)NCCc3ccc(OC)c(OC)c3)CC2=O)cc1 (centres undefined)	8	2%	0.0%	-1%
COc1ccc(OC)c(S(=O)(=O)N2CCC(C(=O)N3CCN(c4ccc(F)cc4)CC3)CC2)c1	·	2%	2.1%	19%

Rango dissoc inh: entries above that show a hit.
SMILES	GLA inh pH 4.5	Rango dissoc inh	Rango complex inh	miR-21 FLuc
COc1ccc(-c2ccc(-c3noc(C(C)C)n3)c(OC)n2)cc1	-4	0.0082µM*	?	-40%

The list continues.
SMILES	GLA inh pH 4.5	Rango dissoc inh	Rango complex inh	miR-21 FLuc
Cc1ccc(OCc2nnc(SCC(=O)NC3CCCCC3)n2C)cc1	4	0%	-1.5%	-5%
COc1ccc(C2NC(=O)NC(C)=C2C(=O)OCC2CCCCC2)cc1OC (centres undefined)	·	-11%	-2.2%	-19%
O=C(CSc1nc(-c2ccccc2)cc(=O)[nH]1)NCc1ccc2c(c1)OCO2	2	-4%	0.7%	-4%
O=c1oc2ccccc2cc1-c1csc(NN=C2CCCCC2)n1	-12	-23%	?	-10%
Nc1cc(Cl)ccc1N1CCCCC1	-2	8%	2.9%	-1%
S=C(NCCCN1CCOCC1)Nc1ccc(Cl)c(Cl)c1	-6	11%	-3.1%	-17%
CC[C@@]1(C(=O)OC)N[C@H](CN(C)C(=O)Nc2ccccc2)[C@@H]2C(=O)N(Cc3ccccc3)C(=O)[C@@H]21	·	-13%	-0.1%	·
COc1ccc(C2CC(=O)c3cnn(-c4nc(C)cc(C)n4)c3C2)cc1OC (centres undefined)	-3	11%	3.3%	-8%
CC1=CC(c2ccc(Cl)cc2)n2nc(NC(=O)CCCC(=O)O)nc2N1 (centres undefined)	·	?	?	-1%
COc1cccc(/C=C/c2nc3c(cnn3-c3ccccc3)c(=O)[nH]2)c1	12	51%	-0.9%	-8%
Cc1ccc(C(=O)N(CC(=O)NC2CCCC2)c2ccccc2Cl)s1	·	1%	1.4%	10%
Cc1cccc(NC(=O)CSc2nc3c(c(=O)[nH]2)CCCC3)c1C	7	19%	-3.9%	-5%
Cc1ccc(C(=O)Nc2nc(-c3ccccc3)c(-c3ccccc3)o2)cc1	-1	1%	5.6%	1%
O=C(CN1CCN(Cc2ccccc2Cl)CC1)N/N=C/c1cccs1	-10	18%	7.4%	-2%
O=C(NCc1ccc2c(c1)OCO2)c1cc(-c2ccccc2)nn1CC1CC(c2cccnc2)=NO1 (centres undefined)	·	-4%	-3.2%	·
CCCN1C=CC(=C/C=C(\C#N)C(=O)OCC)C=C1	-15	·	·	-26%
O=C1CSC(c2ccccn2)N1c1ccccc1 (centres undefined)	10	10%	0.7%	-1%
COCCNC(=S)N1CCN(c2nc(-c3ccc(Cl)cc3)cs2)CC1	·	1%	-5.2%	6%
CCCN(CCC)S(=O)(=O)c1ccc(NC(=O)c2cc(C(=O)OC)cc([N+](=O)[O-])c2)cc1	-5	-13%	0.2%	-1%
CCCCN(CC)CCCNC(=O)C1CCN(c2ncnc3c2sc2cccc(F)c23)CC1	-2	2%	0.0%	-26%
CCOC(=O)N1CCN(C2=C(NS(=O)(=O)c3ccccc3)C(=O)c3ccccc3C2=O)CC1	·	-4%	-0.5%	11%
O=C(C1=C(O)C(=O)N(CCc2ccccc2)C1c1cccnc1)c1ccco1 (centres undefined)	5	-9%	?	-11%
COc1ccccc1OCCNC(=O)C1CCN(C(C)=O)CC1	·	13%	2.4%	2%
CCOc1ccc(NC(=O)CN(C)C(=O)CN2C(=O)C3CCCCC3C2=O)cc1OCC (centres undefined)	·	-29%	0.3%	·
O=C(Nc1cccc(C(=O)NC2CCCCC2)c1)c1ccccc1	·	1%	-4.5%	0%
CCC(=O)c1ccc(OCC(O)CNCc2ccc(F)cc2)cc1 (centres undefined)	0	1%	0.1%	-7%
S=C(NCC1CCCCC1)Nc1cccnc1	-11	17%	-4.8%	-3%
COc1cccc(C(=O)NCC2CCCN2S(=O)(=O)c2ccccc2)c1 (centres undefined)	·	0%	-4.0%	·

In the list so far, these have a CF3 group.
SMILES	GLA inh pH 4.5	Rango dissoc inh	Rango complex inh	miR-21 FLuc
Cn1c(=O)c2c(nc(NCc3cccnc3)n2Cc2cccc(C(F)(F)F)c2)n(C)c1=O	-6	16%	0.6%	20%
CCOC(=O)c1c(N)sc(C(O)(C(F)(F)F)C(F)(F)F)c1-c1ccccc1	-2	-1%	4.5%	3%
Cc1nc(C)c(CCNC(=O)c2ccc(C(F)(F)F)cc2)s1	-3	14%	6.4%	-20%
